Screens as filed in PubChem BioAssay.
DUX4 txn inh: blocks DUX4-driven transcriptional activation; AID 1224904; 37,000 compounds, 0.8% hits; activity change, negative = inhibition, % (concentration not given with the values); 293T-iDUX4 ZSCAN4-Gaussia luciferase reporter, 24 h; stronger effect = lower value;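 active = -10% or lower and over 25 points stronger than a control reporter; inconclusive = -10% or lower with a smaller gap; inactive = above -10%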;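 note: 0% = median of neutral control wells and -100% = median of positive control wells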
DUX4 txn inh difference: second read-out of DUX4 txn inh, no call of its own (marks repeat the call); Gaussia minus Italica difference, %; measured here: selective DUX4 reporter inhibition;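 worked out from the two reporters; negative = selective loss of the DUX4 reporter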
DUX4 txn inh control: further read-out of DUX4 txn inh, marked with its call; activity change, negative = inhibition, %; measured here: Italica tet-on control reporter;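 0 = neutral control and -100 = positive control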
Numbers without * were called inactive; ? = inconclusive; . = no result given.

DUX4 txn inh	DUX4 txn inh difference	DUX4 txn inh control	SMILES
5.4	2.0	3.3	C[C@@H]1CN([C@H](C)CO)S(=O)(=O)c2ccc(C3=CCCC3)cc2O[C@@H]1CN(C)Cc1cccc(C(=O)O)c1
19.5	17.7	1.7	COCC(=O)N1CC[C@@H]2[C@@H](CO)N(C)c3ccc(-c4cccc(OC)c4)cc3[C@@H]21
-1.2	0.7	-2.0	COc1cccc(C(=O)Nc2ccc3c(c2)C(=O)N(C)[C@@H]2CC[C@@H](CC(=O)N[C@@H](C)c4ccccc4)O[C@@H]2CO3)c1
20.4	2.8	17.6	CCC(=O)N1CC2(CN(S(C)(=O)=O)C2)c2c(n(C)c3cc(OC)ccc23)[C@H]1CO
20.6	-4.7	25.3	CCS(=O)(=O)N1CCCCN2[C@H](CO)[C@@H](c3ccc(-c4ccccc4C)cc3)[C@H]2C1
0.6	-6.1	6.7	O=C(NCC[C@@H]1CC[C@@H](NS(=O)(=O)Cc2ccccc2)[C@H](CO)O1)C1CCCCC1
-6.3	-15.4	9.1	Cc1noc(C)c1NC(=O)NCC[C@H]1CC[C@H](NC(=O)Nc2cccc(Cl)c2)[C@@H](CO)O1
6.2	2.9	3.2	COc1ccc(NC(=O)N(C)C[C@H]2OCCCC[C@H](C)Oc3ccc(NC(=O)c4ccncc4)cc3C(=O)N([C@H](C)CO)C[C@@H]2C)cc1
3.6	4.0	-0.4	O=C(C[C@@H]1CC[C@@H]2[C@H](COC[C@@H](O)CN2Cc2nccs2)O1)N1CCC(Cc2ccccc2)CC1
8.6	1.1	7.5	CC(=O)N(CC(C)C)C[C@@H]1N[C@H](CO)[C@H]1c1ccc(-c2cncnc2)cc1
0.0	-2.4	2.4	Cc1ccc(S(=O)(=O)N[C@@H]2CC[C@@H](CCn3cc(C4(O)CCCC4)nn3)O[C@H]2CO)cc1
?	.	.	CN(C)C(=O)c1cccc(-c2ccc3c(c2)[C@H]2[C@H](CCN2Cc2ccccc2F)[C@@H](CO)N3)c1
2.6	5.4	-2.8	COCC(=O)N1[C@H](C(=O)Nc2ccccc2)[C@@H](CO)[C@@H]2Cn3c(ccc(-c4ccc(F)cc4)c3=O)[C@@H]21
7.5	0.3	7.2	CCC(=O)N1C[C@H](C)[C@@H](OC)CN(C)C(=O)c2cc(NC(=O)NC3CCCC3)ccc2OC[C@@H]1C
1.4	0.0	1.3	COCCNC[C@H]1[C@@H](c2ccccc2)[C@@H](CO)N1c1nc(C)c(C)s1
10.1	1.8	8.3	O=C(NC1CCCCC1)N1[C@@H]2CNC[C@H]1C2c1ccc(-c2ccccc2F)cc1 (some centres not stated)
-0.6	1.8	-2.4	C/C=C/c1cnc2c(c1)C(=O)N([C@@H](C)CO)C[C@H](C)[C@@H](CN(C)Cc1ccncc1)O2
?	.	.	COc1ccc2c3c(n(C)c2c1)[C@H](CO)NCC31CCN(S(=O)(=O)c2cccc(C)c2)CC1
0.6	-0.9	1.5	CN1CCN(C(=O)C[C@H]2C[C@@H]3c4cc(NC(=O)Cc5ccncc5)ccc4O[C@@H]3[C@H](CO)O2)CC1
4.1	-2.5	6.7	C[C@H](CO)N1C[C@H](C)[C@H](CN(C)S(C)(=O)=O)Oc2ncc(C#Cc3cccnc3)cc2C1=O
?	.	.	COc1cccc(S(=O)(=O)N(C)C[C@H]2OCc3ccccc3-c3c(n(C)c4ccccc34)C(=O)N([C@@H](C)CO)C[C@H]2C)c1
-2.0	-4.5	2.5	Cc1noc(C)c1S(=O)(=O)Nc1ccc2c(c1)C(=O)N([C@H](C)CO)C[C@H](C)[C@@H](CN(C)S(=O)(=O)c1ccc(F)cc1)OCCCC[C@H](C)O2
14.3	3.7	10.6	COc1ccc2c3c(n(C)c2c1)[C@H](CO)N(C(=O)c1ccncc1)CC31CCN(S(C)(=O)=O)CC1
?	.	.	Cc1ccccc1-c1ccc([C@H]2[C@@H](CO)N3CCCCN(C(=O)NC4CCCC4)C[C@H]23)cc1
?	.	.	O=C(Nc1ccccc1)N1CCCCN2[C@H](CO)[C@@H](c3ccc(C4=CCCCC4)cc3)[C@H]2C1
2.2	-0.9	3.1	CO[C@H](CN(C)S(=O)(=O)c1ccc(Cl)cc1)[C@H](C)CN(C(=O)Nc1ccccc1F)[C@@H](C)CO
?	.	.	CO[C@H]1CN(C)C(=O)c2cc(NS(=O)(=O)c3cccc(F)c3)ccc2OC[C@@H](C)N(Cc2cc(F)ccc2F)C[C@H]1C
?	.	.	COc1ccc2c3c(n(C)c2c1)[C@@H](CO)N(Cc1ccccc1Cl)CC31CCN(C(=O)CC2CC2)CC1
-0.7	-2.5	1.8	CN1C(=O)c2cc(NC(=O)c3ccc(F)c(F)c3)ccc2OC[C@@H]2O[C@@H](CC(=O)N3CCCCC3)CC[C@H]21
-1.3	-3.9	2.7	O=C(O)C[C@@H]1CC[C@@H](NC(=O)c2ccncc2)[C@@H](CO)O1
-2.5	-4.9	2.3	CO[C@H]1CN(C)C(=O)c2cc(NC(=O)NC(C)C)ccc2OC[C@H](C)N(Cc2ccccc2)C[C@H]1C
-4.1	-11.6	7.5	CCCNC(=O)C[C@H]1CC[C@@H]2[C@H](COC[C@H](O)CN2Cc2ccncc2)O1
-5.0	-3.9	-1.1	CCN(C[C@@H]1[C@@H](c2ccccc2)[C@H](CO)N1C(C)=O)C(=O)NC(C)C
1.9	0.1	1.8	Cc1noc(C)c1S(=O)(=O)Nc1ccc2c(c1)CC(=O)N([C@@H](C)CO)C[C@H](C)[C@H](CN(C)C(=O)Nc1cccc3ccccc13)O2
9.1	5.7	3.4	CCCC(=O)N1CCC2(CC1)CN(C(C)=O)[C@@H](CO)c1c2c2ccc(OC)cc2n1C
8.2	5.4	2.8	CN1c2ccc(-c3ccccc3)cc2[C@H]2[C@H](CCN2C(=O)Cc2cccnc2)[C@H]1CO
-2.8	-0.9	-1.8	CN1C(=O)c2cc(NC(=O)c3ccc(F)c(F)c3)ccc2OC[C@H]2O[C@@H](CC(=O)N3CCCCC3)CC[C@H]21
0.5	-0.4	0.9	COc1cccc(C(=O)N2C[C@@H]3[C@H](c4ccccc42)[C@H](CO)N3C(=O)c2ccccc2)c1
8.4	0.5	8.0	C/C=C/c1ccc([C@@H]2[C@H](CO)N(C(=O)C3CCC3)C23CN(C(=O)NC(C)C)C3)cc1
-6.3	-2.7	-3.5	C[C@H](CO)N1C[C@H](C)[C@@H](CN(C)C(=O)c2ccc3c(c2)OCO3)Oc2ncc(/C=C/c3ccccc3)cc2C1=O
7.0	2.7	4.2	C[C@@H]1CN([C@@H](C)CO)C(=O)c2ccccc2-c2ccccc2CO[C@@H]1CN(C)Cc1ccncc1
-3.2	-2.5	-0.7	Cc1ccc(OC(=O)N(C)C[C@H]2OCc3ccccc3-c3ccccc3C(=O)N([C@H](C)CO)C[C@@H]2C)cc1
16.3	9.4	6.9	CN(C)CCCNC(=O)C[C@H]1CC[C@H]2[C@@H](COC[C@H](O)CN2S(=O)(=O)c2ccc(F)cc2)O1
2.0	1.3	0.7	C[C@@H]1CN([C@@H](C)CO)C(=O)c2cc(NC(=O)c3ccncc3)ccc2O[C@@H](C)CCCCO[C@@H]1CN(C)S(=O)(=O)c1cn(C)cn1
?	.	.	C[C@H](CO)N1C[C@H](C)[C@H](CN(C)S(=O)(=O)c2ccc(Cl)cc2)OCc2ccccc2-c2c(n(C)c3ccccc23)C1=O
?	.	.	C[C@H]1CN([C@@H](C)CO)C(=O)c2c(c3ccccc3n2C)-c2ccccc2CO[C@H]1CN(C)Cc1cccc(F)c1
-7.5	-8.7	1.2	O=C(Cc1ccccc1)N1CC[C@@H]2[C@H](CO)Nc3ccc(C#Cc4ccccc4)cc3[C@@H]21
-4.8	-1.6	-3.2	C/C=C/c1ccc([C@@H]2[C@H](CO)N(C(=O)CN(C)C)C23CN(C(=O)C2CCCC2)C3)cc1
-1.3	-1.5	0.2	O=C(c1ccc(F)cc1)N(CC1CCC1)C[C@@H]1N[C@H](CO)[C@@H]1c1ccccc1
?	0.3	5.8	COc1cccc(-c2ccc(C3[C@@H]4CN(C(=O)c5cnccn5)C[C@H]3N4)cc2)c1 (some centres not stated)
-2.7	0.3	-3.0	CCCN1C[C@H](C)[C@H](OC)CN(C)C(=O)c2ccc(NC(=O)C3CCOCC3)cc2OC[C@@H]1C
16.7	10.0	6.7	O=C(C[C@@H]1CC[C@H]2[C@@H](COC[C@@H](O)CN2S(=O)(=O)c2cccc(F)c2)O1)NCCCN1CCOCC1
0.0	0.9	-1.0	COc1ccc2c3c([nH]c2c1)[C@@H](CO)N(CC1CCOCC1)CC31CN(CC2CCOCC2)C1
19.3	1.9	17.4	CN(C)CC#Cc1ccc([C@H]2[C@@H](CO)N3CCCCN(C(=O)NC4CCCC4)C[C@@H]23)cc1
1.3	-3.2	4.5	CCC(=O)N1C[C@@H](O)COC[C@@H]2O[C@H](CC(=O)NCC3CCCCC3)CC[C@H]21
-2.4	-4.5	2.1	O=C(C[C@H]1CC[C@@H](NC(=O)CN2CCOCC2)[C@H](CO)O1)NC1CCC1
1.1	1.2	-0.1	COc1ccc(CN(C)C[C@@H]2OCCCC[C@H](C)Oc3ccc(NC(=O)C4CCCCC4)cc3C(=O)N([C@@H](C)CO)C[C@@H]2C)cc1
12.5	11.7	0.7	O=C([C@H]1[C@H](CO)[C@H]2Cn3c(ccc(-c4cccnc4)c3=O)[C@@H]1N2Cc1cccnc1)N1CCOCC1
-6.6	0.7	-7.3	CO[C@H]1CN(C)C(=O)c2cc(NS(=O)(=O)c3ccc(Oc4ccccc4)cc3)ccc2OC[C@@H](C)NC[C@H]1C
0.5	0.2	0.3	C/C=C/c1ccc([C@@H]2[C@@H](CN(C)C(=O)CC3CC3)N(C(=O)C3CC3)[C@H]2CO)cc1

(more compounds)
DUX4 txn inh	DUX4 txn inh difference	DUX4 txn inh control	SMILES
?	.	.	O=C(C[C@H]1CC[C@H]2[C@@H](COC[C@@H](O)CN2Cc2ccc3c(c2)OCO3)O1)Nc1ccc(-c2ccccc2)cc1
5.1	4.5	0.6	COc1ccccc1CNC(=O)C[C@@H]1C[C@@H]2c3cc(NC(=O)c4cccnc4)ccc3O[C@@H]2[C@H](CO)O1
-1.1	-2.4	1.3	N#C[C@H]1[C@H](c2ccccc2)[C@@H](CO)N1C(=O)Cc1ccccc1
0.6	-3.2	3.8	O=C(NCC1CCCCC1)[C@H]1N[C@H]2c3ccc(C4=CCCCC4)c(=O)n3C[C@H]2[C@@H]1CO
-3.2	-3.5	0.4	C[C@H]1CN([C@@H](C)CO)C(=O)c2cc(NC(=O)c3ccncc3)ccc2O[C@H]1CN(C)S(=O)(=O)c1ccc(Cl)cc1
12.3	6.7	5.6	CCS(=O)(=O)N1CCC2(CC1)CN(C(=O)c1ccc(F)cc1)[C@H](CO)c1c2c2ccc(OC)cc2n1C
1.6	-0.3	1.9	N#C[C@@H]1[C@@H](c2ccc(C#Cc3cccc(F)c3)cc2)[C@H](CO)N1C(=O)C1CCOCC1
-0.1	5.3	-5.3	C[C@@H]1CN([C@@H](C)CO)C(=O)CCCn2nncc2CO[C@H]1CN(C)Cc1ccc2cccnc2c1
13.6	9.2	4.4	O=C1CNC[C@H]2[C@@H](c3ccc(-c4ccccc4F)cc3)[C@@H](CO)N12
-0.3	-7.3	6.9	C[C@@H]1CN([C@@H](C)CO)C(=O)CCCn2nncc2CO[C@H]1CN(C)Cc1ccc2c(c1)OCO2
6.6	1.0	5.6	CCCN1[C@H](C(=O)N2CCCCC2)[C@@H](CO)[C@@H]2Cn3c(ccc(-c4ccccc4OC)c3=O)[C@@H]21
-0.9	0.9	-1.8	CN1C[C@@H]2[C@H](c3ccccc31)[C@H](CO)N2Cc1ccccc1

3 entries already listed, arranged by the number in DUX4 txn inh, descending.
DUX4 txn inh	DUX4 txn inh difference	DUX4 txn inh control	SMILES
5.4	2.0	3.3	C[C@@H]1CN([C@H](C)CO)S(=O)(=O)c2ccc(C3=CCCC3)cc2O[C@@H]1CN(C)Cc1cccc(C(=O)O)c1
0.0	-2.4	2.4	Cc1ccc(S(=O)(=O)N[C@@H]2CC[C@@H](CCn3cc(C4(O)CCCC4)nn3)O[C@H]2CO)cc1
-3.2	-2.5	-0.7	Cc1ccc(OC(=O)N(C)C[C@H]2OCc3ccccc3-c3ccccc3C(=O)N([C@H](C)CO)C[C@@H]2C)cc1

No new results follow: 9 of the compounds above.
DUX4 txn inh	DUX4 txn inh difference	DUX4 txn inh control	SMILES
?	.	.	O=C(C[C@H]1CC[C@H]2[C@@H](COC[C@@H](O)CN2Cc2ccc3c(c2)OCO3)O1)Nc1ccc(-c2ccccc2)cc1
5.1	4.5	0.6	COc1ccccc1CNC(=O)C[C@@H]1C[C@@H]2c3cc(NC(=O)c4cccnc4)ccc3O[C@@H]2[C@H](CO)O1
-1.1	-2.4	1.3	N#C[C@H]1[C@H](c2ccccc2)[C@@H](CO)N1C(=O)Cc1ccccc1
0.6	-3.2	3.8	O=C(NCC1CCCCC1)[C@H]1N[C@H]2c3ccc(C4=CCCCC4)c(=O)n3C[C@H]2[C@@H]1CO
-3.2	-3.5	0.4	C[C@H]1CN([C@@H](C)CO)C(=O)c2cc(NC(=O)c3ccncc3)ccc2O[C@H]1CN(C)S(=O)(=O)c1ccc(Cl)cc1
12.3	6.7	5.6	CCS(=O)(=O)N1CCC2(CC1)CN(C(=O)c1ccc(F)cc1)[C@H](CO)c1c2c2ccc(OC)cc2n1C
1.6	-0.3	1.9	N#C[C@@H]1[C@@H](c2ccc(C#Cc3cccc(F)c3)cc2)[C@H](CO)N1C(=O)C1CCOCC1
-0.1	5.3	-5.3	C[C@@H]1CN([C@@H](C)CO)C(=O)CCCn2nncc2CO[C@H]1CN(C)Cc1ccc2cccnc2c1
13.6	9.2	4.4	O=C1CNC[C@H]2[C@@H](c3ccc(-c4ccccc4F)cc3)[C@@H](CO)N12

A portion of the library, so the mix of outcomes need not match the whole.
